Screening results: PubChem BioAssay, National Center for Advancing Translational Sciences (NCATS)
GLA inh pH 4.5 = alpha-galactosidase A (human) inhibition, pH 4.5; P06280; purified enzyme, 4-MU-alpha-Gal fluorescence, pH 4.5; 230,000 tested, under 10 active; activity change, negative = inhibition, % at 105 µM; inconclusive = small, poorly fitted or top-dose-only inhibition, or a rising curve; inactive = flat fitted curve, though single readings scatter; no compound was filed as active;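 also: 0% = full activity with enzyme and -100% = basal without enzyme; dose as in the result columns while the protocol names 77 µM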
Rango dissoc inh = inhibition of RanGTP-driven Rango-importin beta dissociation; O95149+P62826; Biochemical FRET Rango-importin beta, RanGTP-induced dissociation; Potency, µM (series often up to 46.1 µM), for inactives: at the top dose activity change, negative = inhibition; 0.071% of 340,000 active; AID 540253; active means falling FRET ratio curve, often poorly fitted, with flat reads before Ran was added; inconclusive means other falling curves, or compound fluorescence or quenching; inactive means flat or rising ratio curve;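 also: potency is read from the fitted curve at half-maximal effect; % of control where 0% means no effect; nearly all actives have a fitted effect of over 45% in size; -100% = wells without RanGTP and RCC1; the record marks most hits as doubtful in a second field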
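Recombinant Rango FRET biosensor (EYFP–snurportin 1 IBB–cerulean CFP10) at 0.1 uM premixed with 0.25 uM importin beta in PBS, 1 mM DTT, 0.02% Tween-20, 0.1% BSA. Compound added 5 min; RanGTP-RCC1 (0.6 uM Ran, 2 mM GTP, 0.2 uM RCC1) then triggers release, read at 45 min.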
miR-21 FLuc = miR-21 reporter, rising signal; Potency, µM (doses to about 38.3 µM), for the others: at the highest dose reporter change, positive = more light; 340,000 tested, under 10 active; HeLa miR-21 FLuc reporter, luciferase, 48 h; active = well fitted rising curve with a large enough effect; inconclusive = small, poorly fitted or top-dose-only effect; inactive = no such curve, though single readings can be large or run the other way;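 also: % of control where 0% means no effect; miR-21 action dims this reporter so a rising signal means less miR-21 action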
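Luminescence from a firefly luciferase reporter carrying a miR-21 binding site downstream, stably expressed under a CMV promoter in HeLa cells that make miR-21 endogenously, reports miRNA modulation after 48 h compound exposure up to approximately 40uM final.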
Rango complex inh = prevents formation of the Rango-importin beta complex; 0.031% of 340,000 active; AID 540263; Q14974; Rango CFP/YFP FRET sensor + importin beta, 45 min; Potency, µM (highest dose often 92.2 µM), for inactives: at the top dose inhibition of complex formation; active = rising FRET ratio curve, often small or poorly fitted; inconclusive = mostly compound fluorescence or quenching in the first reads; inactive = flat curves in all reads;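 also: potency is read from the fitted curve at half-maximal effect; 0% = DMSO wells and 100% = buffer wells lacking importin beta; nearly all actives have a fitted effect of over 15% in size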
Target sequence (Q14974 whole entry, looked up): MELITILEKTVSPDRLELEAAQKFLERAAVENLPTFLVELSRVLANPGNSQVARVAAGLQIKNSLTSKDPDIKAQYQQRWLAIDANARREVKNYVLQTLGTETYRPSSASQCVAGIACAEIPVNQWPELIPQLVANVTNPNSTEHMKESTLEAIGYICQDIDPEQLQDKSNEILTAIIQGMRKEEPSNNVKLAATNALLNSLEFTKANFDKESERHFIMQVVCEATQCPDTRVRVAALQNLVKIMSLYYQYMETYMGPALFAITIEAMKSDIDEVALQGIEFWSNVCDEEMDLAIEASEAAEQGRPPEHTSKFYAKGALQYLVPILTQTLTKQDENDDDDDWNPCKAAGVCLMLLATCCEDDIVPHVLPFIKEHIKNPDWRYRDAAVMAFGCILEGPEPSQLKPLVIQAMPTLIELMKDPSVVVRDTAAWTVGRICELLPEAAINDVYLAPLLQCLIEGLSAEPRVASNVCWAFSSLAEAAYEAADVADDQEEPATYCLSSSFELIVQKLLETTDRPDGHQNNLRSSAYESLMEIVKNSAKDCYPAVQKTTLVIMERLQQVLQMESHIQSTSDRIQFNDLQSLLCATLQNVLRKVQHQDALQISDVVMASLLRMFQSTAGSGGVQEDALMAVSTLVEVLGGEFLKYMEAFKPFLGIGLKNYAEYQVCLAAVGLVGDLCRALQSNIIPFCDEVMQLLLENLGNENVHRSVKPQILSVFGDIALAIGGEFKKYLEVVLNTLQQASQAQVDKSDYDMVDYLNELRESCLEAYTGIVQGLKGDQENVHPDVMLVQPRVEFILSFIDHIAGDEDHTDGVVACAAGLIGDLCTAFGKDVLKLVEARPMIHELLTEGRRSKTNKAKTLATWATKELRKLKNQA
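FRET biosensor Rango (snurportin 1 IBB between N-terminal EYFP and C-terminal Cerulean), 50 nM in PBS/1 mM DTT/0.02% Tween-20/0.1% BSA, preincubated 5 min RT with compound; 0.125 microM importin beta added, 45 min RT, CFP/YFP FRET ratio read.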
Active calls of the source: *; & = joins results of further samples; [ ] = dose if it differs, or a comment.

Screening CCS(=O)(=O)N1CCCC(C(=O)NC2CCCCC2)C1 (stereo unspecified) returned GLA inh pH 4.5 -7, Rango dissoc inh -5%, miR-21 FLuc 0% and Rango complex inh -1.0%.
O=C(COC(=O)c1ccc(F)c(S(=O)(=O)N2CCOCC2)c1)NCCc1ccccc1 was read as Rango dissoc inh -21% and Rango complex inh inconclusive.
For O=C(COc1ccccc1Cl)Nc1cccc(S(=O)(=O)N2CCCC2)c1 the results were Rango dissoc inh 8% and Rango complex inh 6.2%.
Screening CCO[C@@H]1OC(C(=O)NCc2nc3ccccc3[nH]2)=C[C@H](C2CC2)[C@H]1CCCO returned GLA inh pH 4.5 -2, Rango dissoc inh 4%, miR-21 FLuc 21% and Rango complex inh 0.5%.
`Cc1ccc(/C=N/Nc2nc(C)cc(C)n2)cc1` gave GLA inh pH 4.5 -1, Rango dissoc inh 10%, miR-21 FLuc -12% and Rango complex inh 0.0%.
Screening CCn1c(-c2csc3c2CCCC3)n[nH]c1=S returned GLA inh pH 4.5 5, Rango dissoc inh 2%, miR-21 FLuc -1% and Rango complex inh 0.8%.
For O=S(=O)(NCc1ccccc1)c1ccc(S(=O)(=O)N(Cc2ccccn2)Cc2ccco2)cc1 the results were GLA inh pH 4.5 -1, Rango dissoc inh 16%, miR-21 FLuc -3% and Rango complex inh 4.3%.
For Cc1c(NC2=CC(=O)CC(C)(C)C2)ccc([N+](=O)[O-])c1C the results were GLA inh pH 4.5 4, Rango dissoc inh 16%, miR-21 FLuc 1% and Rango complex inh 0.0%.
Cc1cccc(C)c1OCc1cc(C(=O)N2CCN3CCCC3C2)no1 (stereo unspecified) was read as Rango dissoc inh 18%, miR-21 FLuc -33% and Rango complex inh -0.2%.
Cc1ccc(Nc2nc(Cl)c(C=O)s2)cc1Cl was read as GLA inh pH 4.5 -5, Rango dissoc inh inconclusive, miR-21 FLuc -12% and Rango complex inh inconclusive.
Screening Cc1cc(C(=O)O)ccc1-c1ccc(CO)o1 returned GLA inh pH 4.5 -4, Rango dissoc inh 10%, miR-21 FLuc -25% and Rango complex inh 0.8%.
For O=C(O)c1cncc(C#CCC2CCCCC2)c1 the results were GLA inh pH 4.5 0, Rango dissoc inh 1%, miR-21 FLuc -58% and Rango complex inh -0.1%.
Cc1nc2ccc(NC(=O)c3sccc3C)cc2s1 was read as GLA inh pH 4.5 -5, Rango dissoc inh 0%, miR-21 FLuc -50% and Rango complex inh -2.2%.
COc1cc(OC)cc(-c2cc3nc(C)c(CCC(=O)O)c(C)n3n2)c1 was read as GLA inh pH 4.5 -9, Rango dissoc inh 22%, miR-21 FLuc inconclusive and Rango complex inh -6.6%.
`CCO/C(C)=N/n1c2nc3ccccc3nc2c2c(=O)n(Cc3ccccc3Cl)c(C)nc21` gave GLA inh pH 4.5 -1, Rango dissoc inh -1%, miR-21 FLuc -3% and Rango complex inh 3.3%.
`Cc1nc(Cl)sc1C(=O)Nc1ccc(Cl)cc1` gave GLA inh pH 4.5 2, Rango dissoc inh 11%, miR-21 FLuc -38% and Rango complex inh 1.0%.
Cc1ccc(/C=C/S(=O)(=O)NCC(=O)OCC(=O)Nc2ccc(C(N)=O)cc2)cc1 was read as Rango dissoc inh -9% and Rango complex inh 0.8%.
For CC1CCCN(C(=O)/C(=C/c2ccco2)NC(=O)c2ccccc2)C1 (stereo unspecified) the results were Rango dissoc inh -14%, miR-21 FLuc 0% and Rango complex inh inconclusive.
For Cc1cc([N+](=O)[O-])ccc1NS(=O)(=O)c1ccccc1 the results were Rango dissoc inh -2% and Rango complex inh 2.8%.
`CCCCN1C(=O)/C(=C2/C=CC=CN2C)SC1=S` gave GLA inh pH 4.5 -10, Rango dissoc inh 7%, miR-21 FLuc -21% and Rango complex inh -4.0%.
CC(=O)Nc1ccc(S(=O)(=O)N(C)CC(=O)NC2=NCCS2)cc1 was read as GLA inh pH 4.5 -5, Rango dissoc inh -6%, miR-21 FLuc -3% and Rango complex inh 0.9%.
`Cc1ccc(-c2nn(CC(=O)N(C)C)c(=O)c3ccccc23)cc1S(=O)(=O)N(C)C` gave GLA inh pH 4.5 -6, Rango dissoc inh -11%, miR-21 FLuc -5% and Rango complex inh 5.6%.
Screening O=C(NC1CCCCCCC1)c1cc(-c2ccccn2)nc2ccccc12 returned GLA inh pH 4.5 3, Rango dissoc inh 8%, miR-21 FLuc -2% and Rango complex inh 0.6%.
COC(=O)Cc1[nH]nc2c1C1(CCSCC1)C(C#N)=C(N)O2 was read as GLA inh pH 4.5 -2, Rango dissoc inh 2%, miR-21 FLuc 0% and Rango complex inh -2.5%.
CC(C(=O)NCC1CCCO1)n1cccc1C(=O)c1ccccc1 (stereo unspecified) was read as GLA inh pH 4.5 -12, Rango dissoc inh 3%, miR-21 FLuc 1% and Rango complex inh 1.2%.
For CC(C)Cc1ccc(C(C)C(=O)N2CCOCC2)cc1 (stereo unspecified) the results were GLA inh pH 4.5 -13, Rango dissoc inh 8%, miR-21 FLuc -1% and Rango complex inh 11%.
COc1ccc(S(=O)(=O)N2CC(C)N(S(=O)(=O)c3ccc(OC)cc3)CC2C)cc1 (stereo unspecified) was read as GLA inh pH 4.5 2, Rango dissoc inh -5%, miR-21 FLuc -6% and Rango complex inh 5.4%.
For COC(=O)c1ccc(NC(=O)CCS(=O)(=O)c2ccc(Br)cc2)cc1 the results were GLA inh pH 4.5 -2, Rango dissoc inh -6%, miR-21 FLuc 11%&5% and Rango complex inh 4.6%.
`Cc1nc2cccc(C)n2c(=O)c1Cl` gave GLA inh pH 4.5 -4, Rango dissoc inh 4%, miR-21 FLuc 1% and Rango complex inh 1.1%.
`COc1ccccc1CC1(C)NC(=O)N(CC(=O)N2CC(C)OC(C)C2)C1=O` (stereo unspecified) gave GLA inh pH 4.5 0, Rango dissoc inh 3%, miR-21 FLuc 3% and Rango complex inh -2.8%.
For CC1CCC(NC(=O)COc2ccc(C(=O)c3ccccc3)cc2)CC1 (stereo unspecified) the results were GLA inh pH 4.5 2, Rango dissoc inh 12%, miR-21 FLuc -3% and Rango complex inh -1.6%.
Screening CCCn1c(N)c(C(=O)CSc2nnc(-c3c[nH]c4ccccc34)n2C2CC2)c(=O)[nH]c1=O returned Rango dissoc inh 6% and Rango complex inh -0.1%.
Screening CN(CC(=O)Nc1nc2ccccc2s1)S(=O)(=O)c1ccc(Cl)cc1 returned GLA inh pH 4.5 1, Rango dissoc inh -5%, miR-21 FLuc 0% and Rango complex inh -4.4%.
CCCC(/C=C/c1ccc(OC(C)=O)cc1)=C1/c2ccccc2C(=O)N1c1ccccc1 was read as Rango dissoc inh inconclusive and Rango complex inh inconclusive.
For COc1ccc(/C=C(/NC(=O)c2ccc(C)cc2)C(=O)NCC2CCCO2)cc1 (stereo unspecified) the results were GLA inh pH 4.5 -3, Rango dissoc inh -7%, miR-21 FLuc 2% and Rango complex inh inconclusive.
For COc1cc(OC)cc(C(=O)N2CCN(Cc3ccc4c(c3)OCO4)CC2)c1 the results were Rango dissoc inh -11%, miR-21 FLuc -2% and Rango complex inh -2.3%.
For CCCCC(=O)Nc1ncc2c(n1)CC(C)(C)CC2=O the results were GLA inh pH 4.5 -7, Rango dissoc inh 1%, miR-21 FLuc -15% and Rango complex inh -1.6%.
`Cc1nnc(SCc2ccccc2C#N)n1-c1ccccc1` gave GLA inh pH 4.5 10, Rango dissoc inh 1%, miR-21 FLuc -3% and Rango complex inh -1.3%.
Screening CCc1cc(=O)oc2cc(OCC(=O)N3CCC[C@H]3C(=O)O)ccc12 returned Rango dissoc inh 14%, miR-21 FLuc 0% and Rango complex inh -0.8%.
Cc1cccc2nc(CSc3nc4ccc([N+](=O)[O-])cc4[nH]3)cn12 was read as GLA inh pH 4.5 -12, Rango dissoc inh 1%, miR-21 FLuc -10% and Rango complex inh 4.8%.
`CCN1C[C@@H]2[C@@H]3C(=O)N(Cc4ccccc4)C(=O)[C@@H]3[C@](C)(C1=O)N2C(=O)c1ccc(Cl)c(Cl)c1` gave Rango dissoc inh -23% and Rango complex inh 3.7%.
For Cc1ccccc1N1C(=O)[C@@H]2Cc3ccccc3CN2C1=O the results were GLA inh pH 4.5 -4, Rango dissoc inh -5%, miR-21 FLuc -2% and Rango complex inh -0.5%.
`CC(OC(=O)CNC(=O)c1ccc2c(c1)OCO2)C(=O)NCCC1=CCCCC1` (stereo unspecified) gave GLA inh pH 4.5 -4, Rango dissoc inh 12%, miR-21 FLuc -3% and Rango complex inh 1.6%.
For CCc1ccc(NC(=O)CN2C(=O)COc3ccc(S(=O)(=O)N4CCCC4)cc32)cc1 the results were Rango dissoc inh 13%, miR-21 FLuc -5% and Rango complex inh 1.2%.
For Cc1cc(=O)n2c(n1)SCOC2 the results were GLA inh pH 4.5 -4, Rango dissoc inh -3%, miR-21 FLuc -1% and Rango complex inh 1.6%.
N/C(=N\OC(=O)c1ccc(F)cc1)c1ccccc1 was read as GLA inh pH 4.5 5, Rango dissoc inh 3%, miR-21 FLuc -40% and Rango complex inh -1.5%.
For O=C(c1cc(-c2ccc(Cl)c(Cl)c2)on1)N1CCN(c2ccccc2)CC1 the results were GLA inh pH 4.5 -8, Rango dissoc inh 1%, miR-21 FLuc -24% and Rango complex inh 1.5%.
`CCc1ccccc1NC(=S)NN` gave GLA inh pH 4.5 1[21.1 µM] and miR-21 FLuc 17%.
O=C(O)CCN1C(=O)/C(=C\c2cccc(OCc3ccccc3)c2)SC1=S was read as Rango dissoc inh -7%, miR-21 FLuc -1% and Rango complex inh -1.4%.
Screening CCc1ccc2c(COC(=O)c3n[nH]c4ccccc34)cc(=O)oc2c1 returned GLA inh pH 4.5 1, Rango dissoc inh -2%, miR-21 FLuc -38% and Rango complex inh 0.8%.
`O=C(/C=C/c1cccnc1)c1ccccc1O` gave GLA inh pH 4.5 6, Rango dissoc inh -2%, miR-21 FLuc -7% and Rango complex inh -0.4%.
For COc1cccc(NC(C(=O)Nc2cccc(C(C)=O)c2)c2ccccc2)c1 (stereo unspecified) the results were GLA inh pH 4.5 -5, Rango dissoc inh -5%, miR-21 FLuc -8% and Rango complex inh 4.7%.
Screening O=C(Nc1ccccc1F)c1ccccc1-c1ccc(C(F)(F)F)cc1 returned GLA inh pH 4.5 4, Rango dissoc inh 9%, miR-21 FLuc -5% and Rango complex inh -0.7%.
`COc1cccc(NC(=O)CNc2cc(S(=O)(=O)N3CCOCC3)ccc2N2CCCC2)c1` gave Rango dissoc inh -5% and Rango complex inh -0.2%.
Screening COc1cccc(CN(C)C(=O)CCNC(=O)c2ccco2)c1 returned Rango dissoc inh 29% and Rango complex inh 0.4%.
COc1ccc(-c2csc(Nc3ccc(S(N)(=O)=O)cc3)n2)cc1 was read as GLA inh pH 4.5 -1, Rango dissoc inh inconclusive, miR-21 FLuc 27% and Rango complex inh inconclusive.
Screening Cc1cc(C)nc(NC(=O)c2ccc([N+](=O)[O-])c(C)c2)n1 returned Rango dissoc inh 13%, miR-21 FLuc -4% and Rango complex inh 0.6%.
Cc1ccc(CNC(=O)C2(C)Oc3ccccc3NC2=O)cc1 (stereo unspecified) was read as GLA inh pH 4.5 7, Rango dissoc inh 1%, miR-21 FLuc -1% and Rango complex inh 0.5%.
`COc1ccc(NC(=S)NCC(c2ccco2)N2CCCC2)cc1` (stereo unspecified) gave GLA inh pH 4.5 4, Rango dissoc inh 6%, miR-21 FLuc -4% and Rango complex inh -0.7%.
`CCn1nnnc1-c1ccc(OC)c(S(=O)(=O)NCc2ccccc2)c1` gave GLA inh pH 4.5 1, Rango dissoc inh 6%, miR-21 FLuc -3% and Rango complex inh 1.6%.
`Cc1nc2cc(C(F)(F)F)ccc2n1CCNc1nc(-c2ccc([N+](=O)[O-])c(Cl)c2)cs1` gave Rango dissoc inh 11%, miR-21 FLuc 15% and Rango complex inh 4.0%.

Entries listed so far that have a CF3 group (2):
Screening O=C(Nc1ccccc1F)c1ccccc1-c1ccc(C(F)(F)F)cc1 returned GLA inh pH 4.5 4, Rango dissoc inh 9%, miR-21 FLuc -5% and Rango complex inh -0.7%.
`Cc1nc2cc(C(F)(F)F)ccc2n1CCNc1nc(-c2ccc([N+](=O)[O-])c(Cl)c2)cs1` gave Rango dissoc inh 11%, miR-21 FLuc 15% and Rango complex inh 4.0%.

A portion of the library (hit frequency here may not be typical).
